High-throughput results deposited in PubChem by Broad Institute.
T cruzi repl: T. cruzi replication inhibition. T. cruzi beta-gal in NIH3T3, luminescence, 90 h. inhibition, % (no concentration beside the values). actives 1.4% (n = 300,000). AID 1885;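 active means mean inhibition across valid replicates above about 55%, limit read from the data; inconclusive means mean below that limit but half or more replicates reach it; inactive means mean below it, under half of replicates reach it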;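 further: signal also drops with host cell toxicity which is not excluded here; 0% = plate median of DMSO wells and 100% = zero luminescence signal; higher percent means less beta-gal luminescence so fewer parasites; stock transfer was 50 nL into about 50 µL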
FGF22 binding: binders of recombinant human FGF22 by thermal shift | Q9HCT0 | SYPRO orange fluorescence; percent of sucrose octasulfate shift, DMSO zero | actives 1.5% (n = 340,000) | calls only at 9.99 µM;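 active means melting point raised past a set limit in the mean and every replicate; inconclusive means no clear call; three in four hits are not shown here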
Target sequence (Q9HCT0 whole entry, looked up): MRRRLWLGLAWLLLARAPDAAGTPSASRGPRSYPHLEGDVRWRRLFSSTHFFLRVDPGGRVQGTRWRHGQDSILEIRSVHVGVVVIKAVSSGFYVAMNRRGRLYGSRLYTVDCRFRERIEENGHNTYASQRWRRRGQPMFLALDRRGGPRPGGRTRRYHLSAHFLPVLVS
AF4-AF9 inh: MLL-AF4/AF9 protein interaction inhibition. AlphaScreen, biotin-AF4 peptide binding to FLAG-AF9. inhibition, % at 10 µM. actives 0.47% (n = 350,000). AID 651704;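 active means every replicate reaching a set inhibition limit, whatever the replicate mean, cut at about 25% in these data; inconclusive means mean inhibition reaches that limit but some replicates miss it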;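 further: 0% = plate neutral control median and 100% = total signal loss; the record names both 10 and 1 µM as test concentration; the first replicate is given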
Target sequence (P42568 whole entry, looked up): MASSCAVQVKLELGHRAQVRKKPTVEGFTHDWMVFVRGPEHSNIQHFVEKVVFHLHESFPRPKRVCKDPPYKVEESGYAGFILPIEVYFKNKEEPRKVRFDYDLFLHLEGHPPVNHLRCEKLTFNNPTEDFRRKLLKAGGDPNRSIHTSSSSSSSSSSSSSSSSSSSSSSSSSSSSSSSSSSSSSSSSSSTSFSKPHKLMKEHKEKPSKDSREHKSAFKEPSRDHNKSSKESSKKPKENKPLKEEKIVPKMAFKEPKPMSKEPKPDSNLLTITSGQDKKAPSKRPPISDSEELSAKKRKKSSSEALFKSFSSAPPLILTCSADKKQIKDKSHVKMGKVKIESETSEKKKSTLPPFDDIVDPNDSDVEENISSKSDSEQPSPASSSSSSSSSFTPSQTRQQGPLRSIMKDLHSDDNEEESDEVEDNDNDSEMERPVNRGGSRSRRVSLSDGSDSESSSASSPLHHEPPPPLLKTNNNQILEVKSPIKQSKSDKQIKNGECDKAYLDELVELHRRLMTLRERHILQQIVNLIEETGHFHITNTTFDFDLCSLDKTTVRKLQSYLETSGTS
ALR H2O2 inh: human ALR oxidase inhibition via reduced H2O2 | P55789 | purified ALR, DTT oxidation, H2O2 HRP-luminol luminescence | inhibition, % (test concentration not listed) | actives 3.8% (n = 290,000) | AID 485317;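 active means mean and each replicate at 75% or more; inconclusive means only one of the two met; inactive means neither met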;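 further: stock transfer was 7.5 nL into about 7.5 µL; 0% = neutral wells and 100% = wells with inactivated enzyme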
Target sequence (P55789 whole entry, looked up): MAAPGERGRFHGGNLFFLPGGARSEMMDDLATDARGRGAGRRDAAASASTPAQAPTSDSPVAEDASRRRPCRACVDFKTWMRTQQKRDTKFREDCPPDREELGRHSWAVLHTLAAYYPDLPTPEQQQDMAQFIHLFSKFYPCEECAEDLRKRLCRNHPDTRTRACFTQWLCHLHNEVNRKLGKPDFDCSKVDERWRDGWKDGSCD
Beta apoptosis: blocks beta cell apoptosis | INS-1E cytokine-induced death, ATP luminescence, 48 h; percent of positive-control rescue, neutral wells zero | actives 0.8% (n = 300,000) | AID 435005 | protection from apoptosis, % (test concentration not listed);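 active means all replicates at 75% or more, or half of them and the mean; inconclusive means half reach 75% but not the mean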;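 further: 0% = cytokine-treated negative control wells and 100% = positive control rescue; higher means more ATP so stronger rescue from cytokine killing; wells of about 40 µL received 100 nL stock; the first replicate is given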
Ecoli rRNA inh: inhibits bacterial ribosomal RNA function over humanized ribosomes; E. coli WT GFP vs humanized-ribosome RFP mutants, fluorescence, 24 h; stronger effect = lower value; DMSO median 0, no signal -100; GFP signal change (wild-type ribosome), % (concentration not given with the values); actives 1.6% (n = 350,000);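 active means significant combined selectivity score with lowered wild-type GFP, culture density cut under 30%, mutant RFP and density less affected; inactive means any of these conditions unmet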; further: one replicate is shown; some compounds called inactive have numbers as strong as hits
RanGTP-Impb inh: disruptors of Ran-importin-beta complex formation – biochemical, FRET, CFP-Ran, YFP-importin-beta, homogeneous, primary screen; inhibition, % (test concentration not listed); actives 1.1% (n = 300,000); AID 2216; cell-free CFP-Ran/YFP-importin-beta FRET ratio;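 active means most replicates above 15%; inconclusive means exactly half above 15%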;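 further: 0% = DMSO wells and 100% = Ran loaded with GDP instead of GTP; wells of about 40 µL received 100 nL stock; the first replicate is given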
Calb FLC: C. albicans growth modulation with fluconazole | C. albicans CaCi-2 (fluconazole-resistant clinical isolate) + fluconazole, Alamar Blue growth, 48 h | growth inhibition, % (test concentration not listed) | actives 0.57% (n = 300,000) | AID 1979;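 active means most replicates above 75%; inconclusive means exactly half above 75%; inactive means most below 75%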;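 further: all wells also contain fluconazole at 8 µg/ml as a sub-toxic cotreatment; 0% = median of DMSO wells and 100% = median of geldanamycin control wells; wells of about 8 µL received 7.5 nL stock; the first replicate is given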
Ecoli rRNA inh OD600: also measured in Ecoli rRNA inh; calls as there; OD600 change, %; measured here: OD600 growth;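 optical density of the mix in the first replicate; 0 = DMSO median and -100 = no signal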
Ecoli rRNA inh RFP: further read-out of Ecoli rRNA inh, marked with its call; RFP signal change, %; measured here: RFP humanized mutant strains;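 first replicate; 0 = DMSO median and -100 = no signal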
* hit, by the source's call; i = inactive; ? = inconclusive; . = no result given. An excerpt; rates above refer to the full screens.

Results follow in this order: T cruzi repl, FGF22 binding, AF4-AF9 inh, ALR H2O2 inh, Beta apoptosis, Ecoli rRNA inh, Ecoli rRNA inh OD600, Ecoli rRNA inh RFP, RanGTP-Impb inh, Calb FLC
> Cc1cc(Nc2cccc(C)c2C)n2ncnc2n1
 : -14, i, 3.3, -10, -1, 3, -1, -0.2, 5.1, 12
> O=C(Cn1nc(C(=O)O)c2ccccc2c1=O)Nc1nc(-c2ccccc2)cs1
 : 5, i, 0.2, -4, 1, 11, 2, -2.4, 2.1, 1
> CCOc1ccc(NC(=O)CN2CCN(CC(=O)Nc3ccc(C(=O)OC)cc3)CC2)cc1
 : -5, ., ., ., 5, ., ., ., 2.7, 0
> O=C(c1cc2ccccn2n1)N1CCN(c2cccc(C(F)(F)F)c2)CC1
 : 1, ., ., -7, 3, ., ., ., 0.0, 5
> CCCCNC(=O)C1CCN(S(=O)(=O)N2CCOCC2)CC1
 : 3, ., -2.0, -18, -5, 21, 14, -0.6, -1.1, -2
> CN(C(=O)c1nn(C)c2c1CSc1ccccc1-2)c1ccccc1Cl
 : 25, i, -4.4, 0, -2, -13, -22, 3.4, 2.3, 3
> COCCN(C(=O)c1ccc(NC2CC2)c([N+](=O)[O-])c1)c1c(N)n(CC(C)C)c(=O)[nH]c1=O
 : ., i, -3.2, 0, 0, 5, 7, -0.8, ., .
> Cc1ccc(-c2nn3cnnc3c3ccccc23)cc1
 : -21, i, -1.5, 3, 0, 3, -11, -0.2, 2.8, 3
> CC(C)CN(C(=O)c1ccc(-n2cncn2)c([N+](=O)[O-])c1)C1CCS(=O)(=O)C1 (stereo not given)
 : -6, i, -4.2, -9, -3, -11, 13, -3.3, -1.1, 2
> Cc1cccc(N2CCN(S(=O)(=O)c3c(C)[nH]c(C)c3C(=O)N3CCCCC3)CC2)c1C
 : 17, i, 7.5, -5, ., -1, -11, 4.3, 1.1, 15
> O=C(Nc1ccc(N2CCN(C(=O)c3cccs3)CC2)cc1)c1ccc(F)cc1
 : 19, i, 2.5, ., -1, -1, 7, -0.8, 4.2, -6
> S=C(Nc1ccccc1)N1CCN(C2CCCCC2)CC1
 : 4, ., ., ., -4, ., ., ., ?, -8
> Cc1ccc(C(=O)OCC(=O)N(CC(C)C)c2c(N)n(Cc3ccccc3)c(=O)[nH]c2=O)cc1[N+](=O)[O-]
 : 1, i, -0.2, 1, -3, 17, 18, 2.7, -1.0, .
> Cc1nn(CC(=O)Nc2c(C)n(C)n(-c3ccccc3)c2=O)c(C)c1[N+](=O)[O-]
 : -10, i, -7.0, 1, -4, -1, 5, -0.7, 7.4, 3
> Cc1ccc(CSCCNC(=O)CSc2ccccc2)cc1
 : 6, i, -16, -6, 4, -7, -14, -6.1, 4.8, -1
> CCOc1ccc2nc(NC3=NC(c4ccc(OC)cc4)CC(=O)N3)nc(C)c2c1 (stereo not given)
 : 51, i, 5.2, -4, 46, -2, -5, 6.9, -0.8, 0
> O=C(NCCCSc1ccccc1)c1cccnc1
 : -1, i, -3.5, -12, 2, 1, 8, -0.3, -0.3, 3
> CCn1cc(C2=NC(c3ccccc3)CO2)c2ccccc21 (stereo not given)
 : 5, i, -5.5, -6, 0, -9, -15, 4.4, 1.5, -13
> Cc1ccc(CCNC(=O)C2CCN(S(=O)(=O)N3CCCC3)CC2)cc1
 : -12, ., ., -2, 2, ., ., ., -0.8, 27
> COc1ccc(CN(C)CC(O)COc2ccc(-c3ccccc3)cc2)cc1OC (stereo not given)
 : 58*, i, 17, -3, ., -4, -13, 8.4, -0.9, -5

(more compounds)
Results follow in this order: T cruzi repl, FGF22 binding, AF4-AF9 inh, ALR H2O2 inh, Beta apoptosis, Ecoli rRNA inh, Ecoli rRNA inh OD600, Ecoli rRNA inh RFP, RanGTP-Impb inh, Calb FLC
> CCOC(=O)C1(CCCc2ccccc2)CCN(C(=O)C2CCCN(C(N)=O)C2)CC1 (stereo not given)
 : 7, ., ., -5, -4, ., ., ., 0.4, 40
> Cc1ccc(CC(=O)OCC(=O)NC2CCCC(C)C2C)cc1C (stereo not given)
 : -22, ., ., -3, -3, ., ., ., -0.1, 1
> Cc1nccc(-c2ccc(-n3cnc4ccccc43)cc2)n1
 : -12, ., ., -12, -3, ., ., ., -3.9, 2
> CC(C)OC(=O)c1cccnc1SCC(=O)N(C)c1ccccc1
 : 12, ., ., -1, -3, ., ., ., -3.6, -8
> CCCCn1c(CNC(=O)Cc2ccccc2)nc2ccccc21
 : 9, i, -12, -2, 0, 0, 0, -1.4, -1.0, -2
> Cc1ccccc1-c1nc2ccccc2[nH]1
 : -14, ., ., -6, -11, ., ., ., -1.2, 0
> CC(=O)N=c1sc2cc(C)ccc2n1C
 : 34, ., ., -1, ., ., ., ., ?, 2
> Clc1ccc(OC2CCN(Cc3nc(CC4CC4)no3)CC2)cc1
 : 14, i, -0.7, -29, 0, -29, -33, -7.3, 5.6, 8
> Cc1cc(C(=O)N2CCC(C)CC2)on1
 : 16, i, -7.0, ., -2, 5, 6, 1.2, 2.8, 1
> COC1CCN(C(=O)CC2C(=O)NCCN2CC(C)(C)C)CC1 (stereo not given)
 : 3, i, 6.6, -8, 2, 17, 16, 2.7, 4.7, -5
> Cc1ccccc1Oc1ccccc1N
 : -5, i, 0.6, -5, 3, 9, 4, -0.8, 0.8, -6
> Cc1cc(C)cc(-c2nnc(SCc3ccc(C(=O)O)cc3)o2)c1
 : -7, i, -1.8, -12, -4, -28, -44, -14, -2.7, 19
> O=C(OCCCc1cc2ccccc2c(=O)o1)N1CCOCC1
 : ., i, -5.0, -1, -13, 10, 10, 0.6, ., .
> COC(=O)c1cscc1NC(C)=O
 : -9, ., ., -9, -10, ., ., ., 3.1, -2
> CS(=O)(=O)c1ccccc1C(=O)Nc1ccc(-c2nc3ccccc3o2)cc1
 : -5, i, -2.6, -7, 7, -4, -2, 4.1, 1.8, 50
> CCC(=O)n1nc(-c2ccc(Cl)cc2)nc1SC
 : -16, ., ., 49, -2, ., ., ., 7.4, 3
> COc1ccc(/C=C/C(=O)Nc2cc(C)nn2-c2nc3ccccc3n2Cc2cccc([N+](=O)[O-])c2)cc1
 : -12, ., ., 4, 10, ., ., ., -2.7, -5
> CCC1CCc2sc(C(=O)NC3CCN(Cc4ccccc4)CC3)cc2C1 (stereo not given)
 : 60*, i, 1.5, 2, 4, -2, -56, 31, 2.5, -5
> C=CCNC(=O)c1c(CSc2ccc(Cl)cc2)noc1C(=O)NCCC
 : -1, ., ., 0, 1, ., ., ., 2.7, 16
> Cc1cccc(NS(=O)(=O)c2ccc3[nH]c(=O)cc(C(=O)OC(C)C(=O)Nc4ccc([N+](=O)[O-])cc4)c3c2)c1 (stereo not given)
 : -11, i, -4.5, ., -9, 1, 8, 19, -0.2, -1

Quoted from the listing.
Under T cruzi repl, CCOc1ccc2nc(NC3=NC(c4ccc(OC)cc4)CC(=O)N3)nc(C)c2c1 (stereo not given) is listed with 51
Under Beta apoptosis, CCOc1ccc(NC(=O)CN2CCN(CC(=O)Nc3ccc(C(=O)OC)cc3)CC2)cc1 is listed with 5

Next part
Results follow in this order: T cruzi repl, FGF22 binding, AF4-AF9 inh, ALR H2O2 inh, Beta apoptosis, Ecoli rRNA inh, Ecoli rRNA inh OD600, Ecoli rRNA inh RFP, RanGTP-Impb inh, Calb FLC
> CC(C)[C@H](NC(=O)N1CC(=O)Nc2ccccc21)C(=O)N[C@@H](Cc1c[nH]c2ccccc12)C(=O)O
 : -4, i, -1.3, ., 0, 2, 4, -13, 2.6, -1
> Cc1c(OCC(=O)NC(Cc2ccc(Cl)cc2)C(=O)O)ccc2c1oc(=O)c1ccccc12 (stereo not given)
 : 9, i, -2.9, 88*, -2, -11, 1, -11, 1.0, -6
> CCOc1ncccc1C(=O)Nc1ccc(F)cc1
 : 6, i, -3.4, -10, -5, -9, -11, -3.5, 0.6, -2
> COc1ccc(CCNC(=O)NC2CCCCC2)cc1OC
 : -15, ., ., 6, -5, -4, 2, -3.0, 2.5, -6
> CCCNC(=O)c1ccc(N2CCC3(CC2)CC(c2cccc(Br)c2)=NO3)c(N)c1
 : ., i, 4.3, 20, 13, ., ., ., ., .
> COc1ccc(CC2(CO)CCN(Cc3cnn(-c4ccccc4OC)c3)CC2)cc1
 : 44, i, -4.8, 1, 2, 1, 1, -2.4, 0.3, 7
> Cc1coc2cc3oc(=O)c(CCC(=O)NCc4ccccn4)c(C)c3cc12
 : 18, i, -1.9, 6, ., -4, 2, -1.7, -4.4, -4
> O=C(NC1CCN(c2ncccn2)CC1)c1c(F)cccc1F
 : -19, i, -0.4, ., -2, 8, 10, -1.0, ?, -1
> CCn1cc(CCCC(=O)NCc2cccc(OC)c2)c2ccccc21
 : -15, i, -23, -3, -7, -28, -30, -5.6, 6.7, -11
> C=CCOc1nc(N2CCCC2)nc(N2CCCC2)n1
 : -4, ., ., 2, 4, ., ., ., -2.9, -14
> O=C(Cc1ccccc1)N1CCN(S(=O)(=O)c2ccc([N+](=O)[O-])cc2)CC1
 : 37, i, 1.6, -26, -3, 15, 15, -1.7, ?, 2
> COc1cccc(C(=O)CSc2nnc(-c3cccs3)o2)c1
 : 12, ., ., -2, -3, ., ., ., 0.4, -5
> COc1ccc(-c2csc(NC(=O)c3ccc(C(C)(C)C)cc3)c2C(=O)O)cc1
 : 33, ., ., 60, 9, ., ., ., -2.3, 45
> CN1/C(=C\C(=O)c2oc3ccccc3c2N)C(C)(C)c2ccccc21
 : 20, ., ., ., 6, ., ., ., -1.0, 11
> Cc1ccc(OC(=O)c2sc(Cl)nc2C)cc1C
 : -17, i, -3.4, 7, 0, 1, -2, -1.6, 2.7, 9
> COc1ccccc1C(=O)Oc1ccc(C(C)C)cc1
 : -7, i, -49, ?, -1, -10, -6, -0.1, -1.4, -18
> CN(Cc1cccc([N+](=O)[O-])c1)Cc1cccc2ccccc12
 : 15, i, 12, 2, 9, 5, 0, 2.1, 1.0, 1
> CCOC(=O)C1=C(Nc2cccc(Cl)c2)OCC1=O
 : -19, ., ., ., -2, ., ., ., -2.3, -3
> CCCc1[nH]nc2c1C(Cc1ccccc1)C(C#N)=C(N)O2 (stereo not given)
 : -5, ., ., ., 2, ., ., ., 4.0, -25
> Cn1cccc1C(C#N)(CC#N)c1cccc(F)c1C#N (stereo not given)
 : 1, i, -1.7, -7, 3, 2, 6, 1.7, 1.5, -3
> COC(=O)CNC(=O)Cc1c(C)n(C(=O)c2ccc(Cl)cc2)c2ccc(OC)cc12
 : -7, i, -1.3, -13, -1, 9, 11, -2.6, 2.1, 33
> CCNC(=S)Nc1ccc(Cl)c([N+](=O)[O-])c1
 : 7, i, 2.9, 49, 2, -9, -11, 0.5, -1.4, 22
> CC(=O)c1c(C)[nH]c(C(=O)OCC(=O)NCCc2ccc(F)cc2)c1C
 : 4, ., ., -21, ., ., ., ., 0.8, -1

Arranged by value in Ecoli rRNA inh (largest number first): 3 from the list above.
| mol | Ecoli rRNA inh |
| --- | --- |
| O=C(Cn1nc(C(=O)O)c2ccccc2c1=O)Nc1nc(-c2ccccc2)cs1 | 11 |
| O=C(NC1CCN(c2ncccn2)CC1)c1c(F)cccc1F | 8 |
| CCNC(=S)Nc1ccc(Cl)c([N+](=O)[O-])c1 | -9 |
